# RanGTP-Impb inh: disruptors of Ran-importin-beta complex formation – biochemical, FRET, CFP-Ran, YFP-importin-beta, homogeneous, primary screen; inhibition, % (test concentration not listed); 1.1% of 300,000 active; AID 2216; cell-free CFP-Ran/YFP-importin-beta FRET ratio;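 active = most replicates above 15%; inconclusive = exactly half above 15%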;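 note: 0% = DMSO wells and 100% = Ran loaded with GDP instead of GTP; wells of about 40 µL received 100 nL stock; the first replicate is given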
# UCH37 DUB inh: human UCH37 deubiquitinating enzyme inhibition; Q9Y5K5; purified proteasome/UCH37, Ub-AMC cleavage fluorescence; inhibition, % (no concentration beside the values); 0.33% of 330,000 active;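 active = mean of two replicates above 20%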;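 note: 0% = compound-free wells with enzyme and 100% = wells lacking proteasome; stock transfer was 100 nL into about 20 µL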
#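 Material: Human UCH37 enzyme supplied as purified proteasome complex | Schedule: 30 min preincubation with enzyme, 25 min cleavage at room temperature | Detection: AMC fluorescence 355/460 nm | Measure: % inhibition of Ub-AMC cleavage fluorescence | Controls: Wells without proteasome as full block, compound-free enzyme plus substrate as uninhibited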
# FGF22 binding: shifts melting point of recombinant human FGF22 | calls only at 9.99 µM | AID 651658 | recombinant FGF22 thermal shift, SYPRO orange fluorescence; percent of sucrose octasulfate shift, DMSO zero | Q9HCT0 | 1.5% of 340,000 active;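 active = melting point raised past a set limit in the mean and every replicate; inconclusive = no clear call; three in four hits are not shown here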
# AF4-AF9 inh: blocks AF4 peptide binding to human AF9; P42568; AlphaScreen, biotin-AF4 peptide binding to FLAG-AF9; inhibition, % at 10 µM; 0.47% of 350,000 active; AID 651704;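 active = every replicate reaching a set inhibition limit, whatever the replicate mean, cut at about 25% in these data; inconclusive = mean inhibition reaches that limit but some replicates miss it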;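 note: 0% = plate neutral control median and 100% = total signal loss; the record names both 10 and 1 µM as test concentration; the first replicate is given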
# Target sequence (P42568 whole entry, looked up): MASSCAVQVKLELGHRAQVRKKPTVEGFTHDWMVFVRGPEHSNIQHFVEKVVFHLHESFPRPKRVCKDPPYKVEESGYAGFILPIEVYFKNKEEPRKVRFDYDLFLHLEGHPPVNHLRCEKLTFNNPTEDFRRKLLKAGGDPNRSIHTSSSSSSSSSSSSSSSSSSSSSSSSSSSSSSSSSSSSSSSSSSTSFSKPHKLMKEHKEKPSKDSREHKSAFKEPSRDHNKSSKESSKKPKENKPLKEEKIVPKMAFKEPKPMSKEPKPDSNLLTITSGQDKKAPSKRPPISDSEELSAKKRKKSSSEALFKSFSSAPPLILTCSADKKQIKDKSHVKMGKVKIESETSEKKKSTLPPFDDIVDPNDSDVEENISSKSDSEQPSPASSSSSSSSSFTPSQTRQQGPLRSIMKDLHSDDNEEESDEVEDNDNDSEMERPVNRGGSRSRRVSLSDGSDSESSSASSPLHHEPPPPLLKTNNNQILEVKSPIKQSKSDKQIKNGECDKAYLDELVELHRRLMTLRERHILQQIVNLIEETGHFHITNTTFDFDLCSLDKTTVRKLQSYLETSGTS
# HNF4A DNA FP: change in binding of human HNF4 alpha to DNA. P41235. HNF4a-FITC DNA binding, fluorescence polarization, 1 h. activity change, % at 10 µM. 0.3% of 360,000 active. AID 1224865; in the data active = activity change above about 30%, passing the limit was not always enough;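 note: controls were the assay level and a saturating level of protein; the project sought stronger binding though the title names inhibitors; some compounds called inactive have numbers as strong as hits; positive values seem to mean higher polarization but the record does not say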
# Target sequence (P41235 whole entry, looked up): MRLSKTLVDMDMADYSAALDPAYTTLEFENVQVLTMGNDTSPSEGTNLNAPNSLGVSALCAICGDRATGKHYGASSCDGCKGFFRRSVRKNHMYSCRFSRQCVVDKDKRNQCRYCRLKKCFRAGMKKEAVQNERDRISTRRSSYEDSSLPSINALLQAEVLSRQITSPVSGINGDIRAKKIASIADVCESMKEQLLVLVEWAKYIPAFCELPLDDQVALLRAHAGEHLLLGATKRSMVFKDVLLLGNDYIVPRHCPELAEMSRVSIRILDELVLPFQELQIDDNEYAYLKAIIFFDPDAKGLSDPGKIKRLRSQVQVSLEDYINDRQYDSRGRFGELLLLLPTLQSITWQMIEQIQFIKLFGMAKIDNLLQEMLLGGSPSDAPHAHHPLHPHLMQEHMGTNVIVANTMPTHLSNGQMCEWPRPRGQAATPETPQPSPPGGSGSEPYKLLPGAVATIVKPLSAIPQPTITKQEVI
# Vif A3G: HIV-1 Vif–A3G interaction blockers – biochemical, TR-FRET, GST-Vif 1-94, biotin-A3G peptide, dose response retest, primary screen (AID 1117319) | inhibition, %, or IC50 in µM where a hit was titrated | TR-FRET GST-Vif / biotin-A3G peptide binding; higher % means a stronger effect; test concentration not given here; strong numbers were not always called active | 0.57% of 260,000 active;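 active = above the screen mean plus three standard deviations and confirmed in dose response; inconclusive = results disagree or hit not tested in dose response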;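 note: Vif residues 1-94 fused to GST binding biotinylated APOBEC3G peptide 110-148; 0% = full assay without inhibitor and 100% = GST in place of GST-Vif; retest series ran down from 100 µM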
# Ecoli growth: inhibitors of Escherichia coli growth; OD600, 23 h; hits give low values; OD600 absorbance (test concentration not listed); 0.21% of 330,000 active;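 active = OD600 absorbance below the run mean of sample wells minus 3.6 SD, in any replicate, cut at about 0.56 in these data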;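 note: stock transfer was 300 nL into about 60 µL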
# The depositor's hits bear a star; i = inactive; ? = inconclusive; . = no result given.
SMILES,RanGTP-Impb inh,UCH37 DUB inh,FGF22 binding,AF4-AF9 inh,HNF4A DNA FP,Vif A3G,Ecoli growth
O=C(NCSc1ccccc1)c1ccccc1,-0.8,1.5,i,0.5,-0.8,.,0.68
Cc1cc(NC(=O)Nc2ccccc2)n(C(C)(C)C)n1,5.1,0.6,i,-3.4,-0.3,-5%,0.67
COc1ccccc1NC(=O)NCC(c1ccco1)N1CCCCC1 (stereo not given),0.7,1.8,i,-0.7,0.7,-1%,0.71
COc1cc2c(cc1OC)C(c1ccc3c(c1)OCO3)CC(=O)N2 (stereo not given),-1.4,1.5,i,0.5,4.3,?,0.7
O=C(O)c1ccc(-c2ccc(OS(=O)(=O)c3ccccc3F)cc2)cc1,-4.5,3.9,i,-1.6,-0.5,.,0.69
CN(C(=O)c1cc(Cl)c2c(c1)OCCO2)c1c(N)n(Cc2ccccc2)c(=O)[nH]c1=O,.,2.9,i,-0.2,-5.5,-2%,0.7
CCCCN(C(=O)c1cccc(S(=O)(=O)N2CCN(C)CC2)c1)c1c(N)n(CC(C)C)c(=O)[nH]c1=O,.,1.8,i,1.1,0.9,3%,0.65
Cc1ccc(CC2C(=O)N(c3ccc(C)cc3)C(=O)C2C)cc1 (stereo not given),-0.9,0.0,i,-4.5,2.1,21%,0.69
Cc1nc(N)c(CC(Br)CBr)c(Cl)n1 (stereo not given),4.3,0.7,i,5.8,0.9,8%,0.57
CCOc1cc(NS(=O)(=O)CC)c(OCC)cc1NC(=O)c1ccco1,2.7,2.8,.,.,-0.4,9%,0.72
Cc1ccc(S(=O)(=O)NCC2CCC(C(=O)NCCCOC(C)C)CC2)cc1 (stereo not given),0.5,-0.6,.,.,.,16%,0.65
COc1ccccc1NC(=O)C(NC(=O)OC(C)(C)C)C(C)OCc1ccccc1 (stereo not given),-3.3,3.4,i,3.0,0.6,0%,0.69
CN(C(=O)c1cccc(N2C(=O)C3C4C=CC(C4)C3C2=O)c1)C1CCCCC1 (stereo not given),?,0.0,i,-3.3,-3.3,.,0.69
CC(=O)N(c1ccc(C)cc1)C1C=CS(=O)(=O)C1 (stereo not given),-0.1,1.2,i,-2.3,6.6,3%,0.75
Cc1nn(C)cc1C(=O)Nc1c(C)nn(Cc2ccccc2Cl)c1C,-2.4,1.4,.,.,0.9,-1%,0.67
Nc1c(C(=O)Nc2ccc3c(c2)OCCO3)nnn1Cc1ccc(Br)cc1,1.1,-5.3,i,-5.6,-6.0,.,0.65
Cc1c(Cl)cccc1NC(=O)CCN1CCCCCC1,0.5,0.7,.,.,-2.1,-4%,0.69
COc1cc2nc(Cl)nc(N3CCOCC3)c2cc1OC,?,8.3,i,2.2,-1.6,-14%,0.69
Cc1cc(NC(=O)c2ccccc2)n(C)n1,-2.4,1.3,i,0.1,1.1,-4%,0.7
Cc1cc(=O)[nH]c(Nc2ccccc2C)n1,-0.8,0.2,i,-6.2,-1.2,2%,0.65
CCCN(Cc1cc2cc(OC)ccc2[nH]c1=O)C(=O)c1ccncc1,3.5,-12,.,.,-1.6,-6%,0.67
N#CCSc1nc2ccccc2c(=O)n1CC1CCCC1,1.2,-1.3,i,-1.4,6.0,-2%,0.65
O=S(=O)(c1ccccc1)c1nc(-c2ccccc2Cl)oc1NCCN1CCOCC1,0.6,0.7,.,.,3.9,1%,0.67
CC(C)c1ccc(NC2CCCN(C(=O)c3ccsc3)C2)cc1 (stereo not given),-1.2,4.8,i,14,-1.9,.,0.69
Cc1nc(NCC2CCCO2)[nH]c(=O)c1CCC(C)C (stereo not given),-1.9,1.8,.,.,-2.3,26%,0.71
COC(=O)c1ccc(COc2ccc(/C=C(\C#N)c3nc4ccccc4[nH]3)cc2OC)o1,6.0,-11,.,.,26,15%,0.68
CN(C)C(=O)COc1ccc(C(=O)/C=C/c2cccnc2)cc1,4.2,8.8,i,-2.4,1.1,.,0.63
CCN(C(=O)CSc1nnc(COc2ccccc2F)n1N)C1CCS(=O)(=O)C1 (stereo not given),-2.2,-2.0,i,-1.2,-2.7,.,0.69
O=C1CC(Cc2ccc(Cl)cc2)C(=O)N1c1ccccn1 (stereo not given),0.5,0.8,.,.,-4.6,-1%,0.68
CC(C)c1ccc(-c2nc(N3CCCCCC3)nc3n[nH]c(N)c23)cc1,1.8,3.7,.,.,0.9,72%,0.71
CCOC(=O)c1cccc(NC(=O)c2ccco2)c1,1.7,0.5,.,.,4.5,2%,0.62
C/C(=N\Nc1ccc(Cl)c(C(=O)O)c1)c1cccs1,?,.,i,-4.8,-11,-4%,.
O=C(COC(=O)c1ccccc1NCCO)Nc1cccc(S(=O)(=O)NC2=NCCCCC2)c1,2.3,-295,i,-23,-2.6,-4%,0.7
O=C(c1cccs1)c1coc2ccc(O)c(CN(CCO)CCO)c12,-3.6,1.9,.,.,1.9,-2%,0.7
O=[N+]([O-])c1cccc(S(=O)(=O)N2CCN(c3ccccn3)CC2)c1,4.5,-0.3,i,-9.4,-2.7,.,0.67
COc1ccc(CC(=O)Nc2cc(C)on2)cc1,1.0,0.6,.,.,7.4,3%,0.69
COc1ccc(N(CC(=O)NCc2ccccc2)S(=O)(=O)c2c(C)n[nH]c2C)cc1,1.6,0.6,i,-19,-2.0,.,0.7
COC(C[C@H](O)[C@H](C)[C@@H](O)COCc1ccccc1)OC,-0.5,-0.2,i,.,-2.1,7%,.
CCC(CO)Oc1cc(NCc2ccc(C(F)(F)F)cc2)c2ncn(C(C)C)c2c1 (stereo not given),.,3.8,i,2.2,4.7,.,0.69
COc1ccccc1NC(=O)[C@@H]1CCCN1S(=O)(=O)c1ccc(Cl)cc1,.,0.2,i,-5.4,0.0,.,0.69
CCCc1cc(=O)oc2c(CN3CCCC3)c(O)c(Cl)cc12,62*,i,.,.,-17,9%,0.7
O=C(NCc1cccnc1)c1cc(C2CCCCN2S(=O)(=O)c2cccc3cccnc23)on1 (stereo not given),.,.,i,1.8,-5.0,.,.
O=C(CN1CCN(Cc2ccccc2)CC1)N/N=C/c1ccco1,3.2,.,i,-7.2,1.5,7%,.
Cc1nn2c(N3CCN(CCO)CC3)c3c(nc2c1-c1ccccc1)CCCC3,-0.2,3.6,.,6.7,-0.3,3%,0.67
CC(=O)c1ccc(NC(=O)CN(C)CC(=O)Nc2cccc(F)c2)cc1,11,2.5,i,0.8,-0.2,-9%,0.7
COc1ccccc1CNC(=O)c1cc2c(s1)CS(=O)(=O)C2,-1.7,2.2,i,3.5,1.9,3%,0.71
COc1ccc(-c2nc(=S)c3c([nH]2)Oc2ccc(C)cc2C3)cc1O,-5.5,2.7,i,-4.3,1.7,.,0.72
CCS(=O)(=O)N1CCCC(C(=O)NC2CCC(C)CC2)C1 (stereo not given),3.4,3.1,.,.,3.6,-1%,0.71
COC(=O)C1CCN(C2CN(Cc3ccc(C)cc3)S(=O)(=O)C2)CC1 (stereo not given),.,.,i,0.5,1.7,.,.
Cc1cc(NC(=O)NC(C(F)(F)F)C(F)(F)F)no1,?,-0.3,i,-1.9,-4.1,3%,0.69
CC(C)CC(OC(=O)c1ccco1)C(=O)NCC1CCCO1 (stereo not given),4.9,-0.1,.,.,0.8,1%,0.72
CN(C)c1cccc2c1c(NC(=O)Nc1ccccc1)nn2C,2.8,-19,i,-0.7,-2.8,17%,0.62
Cc1nc2sc(C(c3cccs3)N3CCOCC3)c(O)n2n1 (stereo not given),1.5,5.0,i,-7.9,-2.1,30%,0.74
CN(C)S(=O)(=O)c1ccc(Cl)c(NC(=O)CN2C(=O)NC3(CCc4ccccc43)C2=O)c1 (stereo not given),.,0.6,i,0.1,-1.5,.,0.71
CCOC(=O)CC(NC(=O)Cn1nnc(-c2ccccc2Cl)n1)c1ccc(OC)cc1 (stereo not given),-0.8,0.8,i,-1.8,1.5,.,0.71
Cc1cccc(NC(=S)NCCc2ccccc2)c1C,0.5,2.5,i,-0.5,-0.8,-3%,0.59
O=C(Nc1nnc(SCc2ccc(F)cc2)s1)c1ccc2c(c1)C(=O)N(c1ccccc1Cl)C2=O,-2.8,.,i,-2.5,-3.2,5%,.
COc1ccc(S(=O)(=O)N2CCCC2)c2ccccc12,1.7,0.8,i,1.8,-1.4,.,0.68
Cc1cccc(C)c1OCC(=O)Nc1ccccc1N1CCCCC1,-2.4,-2.7,i,-0.8,-3.1,22%,0.72
N#Cc1cccc(NC(=O)Cn2cnc(S(=O)(=O)N3CCc4ccccc43)c2)c1,-1.8,4.2,.,.,1.3,8%,0.7

# Part of the list above, as labelled records.
> Cc1cccc(NC(=S)NCCc2ccccc2)c1C
  RanGTP-Impb inh: 0.5	UCH37 DUB inh: 2.5	FGF22 binding: i	AF4-AF9 inh: -0.5	HNF4A DNA FP: -0.8	Vif A3G: -3%	Ecoli growth: 0.59

> O=C(Nc1nnc(SCc2ccc(F)cc2)s1)c1ccc2c(c1)C(=O)N(c1ccccc1Cl)C2=O
  RanGTP-Impb inh: -2.8	UCH37 DUB inh: .	FGF22 binding: i	AF4-AF9 inh: -2.5	HNF4A DNA FP: -3.2	Vif A3G: 5%	Ecoli growth: .

> COc1ccc(S(=O)(=O)N2CCCC2)c2ccccc12
  RanGTP-Impb inh: 1.7	UCH37 DUB inh: 0.8	FGF22 binding: i	AF4-AF9 inh: 1.8	HNF4A DNA FP: -1.4	Vif A3G: .	Ecoli growth: 0.68

> Cc1cccc(C)c1OCC(=O)Nc1ccccc1N1CCCCC1
  RanGTP-Impb inh: -2.4	UCH37 DUB inh: -2.7	FGF22 binding: i	AF4-AF9 inh: -0.8	HNF4A DNA FP: -3.1	Vif A3G: 22%	Ecoli growth: 0.72

# (further entries)
SMILES,RanGTP-Impb inh,UCH37 DUB inh,FGF22 binding,AF4-AF9 inh,HNF4A DNA FP,Vif A3G,Ecoli growth
O=C(/C=C/c1cccc([N+](=O)[O-])c1)N1CCN(Cc2ccccc2)CC1,6.3,5.4,i,5.4,-2.8,1%,0.63
CC(=O)Nc1cccc(/C(C)=N/NC(N)=S)c1,0.4,.,i,-7.5,1.5,6%,.
COC(=O)[C@@]1(Cc2ccc(F)cc2)[C@H]2c3cc(C(=O)N(C)C)n(CC4CC4)c3C[C@H]2CN1C(=O)c1ccccc1,.,.,i,11,1.7,.,.
Clc1ccc(-c2nc3ccccc3n2OCc2ccccc2)cc1,-0.4,1.1,.,.,-0.3,-3%,0.7
Cc1ccc(C2(c3noc(CN4CCC(C(=O)N5CCOCC5)CC4)n3)CCCC2)cc1,2.4,5.1,i,-11,3.4,0%,0.66
FC(F)(F)c1cccc(N2CCN(Cc3ccoc3)CC2)c1,-3.1,6.5,i,4.4,13,3%,0.72
Cc1ccc(NC(=O)CN2CCC(C(N)=O)CC2)cc1[N+](=O)[O-],3.4,7.9,.,-0.4,0.5,5%,0.7
CC1CCN(c2nc3c(c(=O)[nH]c(=O)n3C)n2CCCc2ccccc2)CC1,7.0,4.3,i,-12,2.0,-3%,0.71
O=C(CSc1ccc(-c2ccccc2)nn1)NCc1ccco1,2.2,5.7,.,.,0.2,.,0.72
O=C(CSc1nnc(NC2CCCCC2)s1)NC1CCS(=O)(=O)C1 (stereo not given),1.8,1.3,.,.,-3.1,2%,0.62
Cn1cc(CN2CCC(C(O)CCc3ccccc3)CC2)c(-c2ccccc2F)n1 (stereo not given),-3.3,2.7,i,1.8,-4.2,30%,0.73
CC(C)NC(=O)c1onc(CSc2ccc(Cl)cc2)c1C(=O)NC(C)C,2.7,1.8,.,.,-0.3,1%,0.65
O=C(CN1CCN(S(=O)(=O)c2ccc(F)cc2)CC1)Nc1cc(C(F)(F)F)ccc1Cl,3.7,4.4,.,.,-3.0,66%,0.76
CCC1CCCCN1Cc1nc(Cc2ccccc2Cl)no1 (stereo not given),1.2,1.1,i,-1.4,-1.3,12%,0.71
Cc1noc(C)c1C(=O)Nc1cc(S(=O)(=O)N2CCCCC2)ccc1N(C)C,.,3.4,i,-0.2,1.9,-2%,0.63

# Some of the compounds tested (hit frequency here may not be typical).
